Compound activity: PubChem, several laboratories
rRNA inh HTS – inhibitors of bacterial rRNA selective over humanized ribosomes; E. coli WT GFP vs humanized-ribosome RFP mutants, fluorescence, 24 h; stronger effect = lower value; DMSO median 0, no signal -100; GFP signal change (wild-type ribosome), % (no concentration beside the values); actives 1.6% (n = 350,000); AID 720706;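 active = significant combined selectivity score with lowered wild-type GFP, culture density cut under 30%, mutant RFP and density less affected; inactive = any of these conditions unmet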; also: one replicate is shown; some compounds called inactive have numbers as strong as hits
T cruzi inh – T. cruzi replication inhibition. T. cruzi beta-gal in NIH3T3, luminescence, 90 h. AID 1885. actives 1.4% (n = 300,000). inhibition, % (test concentration not listed);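 active = mean inhibition across valid replicates above about 55%, limit read from the data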;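 also: signal also drops with host cell toxicity which is not excluded here; 0% = plate median of DMSO wells and 100% = zero luminescence signal; higher percent means less beta-gal luminescence so fewer parasites; stock transfer was 50 nL into about 50 µL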
Bfl-1 A1 inh – inhibitors of the anti-apoptotic protein A1, read as caspase activation | MEF A1-2A-BIM cells, Caspase-Glo 3/7 luminescence, 3 h; percent of clofoctol response, vehicle zero | caspase activation, % (concentration not given with the values) | actives 0.066% (n = 330,000);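 active = over half of replicate activation scores above 10%, or exactly half above 10 with the replicate mean above 10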;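 also: wells of about 30 µL received 50 nL stock; many hits fall short of the cut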
Beta cell apopt – beta cell apoptosis inhibition | INS-1E cytokine-induced death, ATP luminescence, 48 h; percent of positive-control rescue, neutral wells zero | protection from apoptosis, % (test concentration not listed) | actives 0.8% (n = 300,000) | AID 435005;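 active = all replicates at 75% or more, or half of them and the mean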;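 also: 0% = cytokine-treated negative control wells and 100% = positive control rescue; higher means more ATP so stronger rescue from cytokine killing; wells of about 40 µL received 100 nL stock; the first replicate is given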
E coli growth – blocks Escherichia coli growth; OD600, 23 h; stronger effect = lower value; OD600 absorbance (no concentration beside the values); actives 0.21% (n = 330,000); AID 1053175;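 active = OD600 absorbance below the run mean of sample wells minus 3.6 SD, in any replicate, cut at about 0.56 in these data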;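 also: stock transfer was 300 nL into about 60 µL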
FGF22 binding – binders of recombinant human FGF22 by thermal shift. SYPRO orange fluorescence; percent of sucrose octasulfate shift, DMSO zero. actives 1.5% (n = 340,000). calls only at 9.99 µM. Q9HCT0;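 active = melting point raised past a set limit in the mean and every replicate; three in four hits are not shown here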
Target sequence (Q9HCT0 whole entry, looked up): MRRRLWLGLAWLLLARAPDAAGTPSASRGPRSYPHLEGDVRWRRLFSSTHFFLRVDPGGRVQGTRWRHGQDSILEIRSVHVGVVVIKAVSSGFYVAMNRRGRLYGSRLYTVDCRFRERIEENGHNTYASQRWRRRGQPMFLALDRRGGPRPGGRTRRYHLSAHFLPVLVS
UCH37 DUB inh – inhibitors of human deubiquitinating enzyme UCH37 | AID 588478 | purified proteasome/UCH37, Ub-AMC cleavage fluorescence | Q9Y5K5 | actives 0.33% (n = 330,000) | inhibition, % (no concentration beside the values);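 active = mean of two replicates above 20%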;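 also: 0% = compound-free wells with enzyme and 100% = wells lacking proteasome; stock transfer was 100 nL into about 20 µL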
Target sequence (Q9Y5K5 whole entry, looked up): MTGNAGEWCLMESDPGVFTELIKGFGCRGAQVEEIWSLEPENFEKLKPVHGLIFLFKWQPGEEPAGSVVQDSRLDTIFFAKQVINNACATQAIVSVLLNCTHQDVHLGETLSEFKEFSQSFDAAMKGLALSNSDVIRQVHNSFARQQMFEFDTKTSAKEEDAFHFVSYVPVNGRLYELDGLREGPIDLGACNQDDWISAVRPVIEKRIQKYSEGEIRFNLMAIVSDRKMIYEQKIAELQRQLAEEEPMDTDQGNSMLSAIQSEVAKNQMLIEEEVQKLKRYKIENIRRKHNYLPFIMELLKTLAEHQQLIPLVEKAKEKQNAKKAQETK
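assay system = human UCH37 enzyme supplied as purified proteasome complex | amount = proteasome at 0.15 nM in the dispensed enzyme solution | schedule = 30 min compound-proteasome preincubation then 25 min substrate reaction, room temperature | measured by = fluorescence, ex 355 nm, em 460 nm | benchmarks = no-proteasome wells (full inhibition) and compound-free wells (no inhibition)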
MLL AF4-AF9 inh – blocks AF4 peptide binding to human AF9; P42568; inhibition, % at 10 µM; actives 0.47% (n = 350,000); AlphaScreen, biotin-AF4 peptide binding to FLAG-AF9;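 active = every replicate reaching a set inhibition limit, whatever the replicate mean, cut at about 25% in these data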;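 also: 0% = plate neutral control median and 100% = total signal loss; the record names both 10 and 1 µM as test concentration; the first replicate is given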
Target sequence (P42568 whole entry, looked up): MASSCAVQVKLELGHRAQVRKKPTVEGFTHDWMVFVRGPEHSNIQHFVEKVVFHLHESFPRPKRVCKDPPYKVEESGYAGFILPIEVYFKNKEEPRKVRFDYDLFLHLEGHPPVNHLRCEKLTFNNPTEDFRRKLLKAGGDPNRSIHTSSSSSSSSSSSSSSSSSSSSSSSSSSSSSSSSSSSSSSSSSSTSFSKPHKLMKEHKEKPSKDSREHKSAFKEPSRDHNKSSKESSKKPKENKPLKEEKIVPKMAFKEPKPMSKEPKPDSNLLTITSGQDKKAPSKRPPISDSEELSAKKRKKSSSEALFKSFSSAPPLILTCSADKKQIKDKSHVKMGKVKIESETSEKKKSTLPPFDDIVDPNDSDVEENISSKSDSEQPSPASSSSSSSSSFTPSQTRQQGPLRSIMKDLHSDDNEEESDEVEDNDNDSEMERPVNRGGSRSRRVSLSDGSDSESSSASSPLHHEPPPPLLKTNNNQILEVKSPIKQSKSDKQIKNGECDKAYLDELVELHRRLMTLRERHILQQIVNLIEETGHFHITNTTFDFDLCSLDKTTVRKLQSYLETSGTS
rRNA inh HTS OD600 – also measured in rRNA inh HTS; calls as there; OD600 change, %; measured here: OD600 growth;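 optical density of the mix in the first replicate; 0 = DMSO median and -100 = no signal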
rRNA inh HTS RFP – second read-out of rRNA inh HTS, no call of its own (marks repeat the call); RFP signal change, %; measured here: RFP humanized mutant strains;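 first replicate; 0 = DMSO median and -100 = no signal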
* marks the source's active call; other numbers are inactive results; i = inactive; x = no result given; + = active, no number.

SMILES	rRNA inh HTS	rRNA inh HTS OD600	rRNA inh HTS RFP	T cruzi inh	Bfl-1 A1 inh	Beta cell apopt	E coli growth	FGF22 binding	UCH37 DUB inh	MLL AF4-AF9 inh
O=C(c1ccccc1)C(CCC(CN1CCOCC1)C(=O)c1ccccc1)CN1CCOCC1 (stereo not given)	x	x	x	-3	1.3	95*	0.78	x	5.6	x
Cc1ccc(S(=O)(=O)N(C)c2ccc(C(=O)NCc3ccccn3)cc2)cc1	-11	-7	2.2	4	-0.4	-4	0.67	i	4.4	1.2
NC(=O)CSc1cn(Cc2ccc(F)cc2)c2ccccc12	3	-1	2.2	-14	-0.6	-6	0.76	i	1.1	-7.1
COc1ccc(CN2CCNC(=O)C2CC(=O)N(Cc2nccn2C)C(C)C)c(OC)c1 (stereo not given)	16	8	2.4	-5	0.6	-1	0.66	i	2.8	-2.2
O=C(CSc1nc2ccccc2o1)Nc1nc2ccc(Br)cc2s1	x	x	x	1	1.6	1	0.76	x	-0.5	x
COC(=O)c1sccc1NC(=O)COc1ccc(F)cc1Cl	13	13	-3.0	-1	-7.1	2	0.73	x	-1.0	-1.7
O=C(OCC(=O)N1CCc2ccccc21)c1ccccn1	-3	6	-1.9	6	0.0	-2	0.62	i	4.2	-2.0
CC(=O)Oc1ccc(-c2nc(-c3cccnc3)no2)cc1	x	x	x	-11	-10	4	0.66	x	-0.4	x
Cc1nc(N2CCN(c3ccccn3)CC2)c2c(C)c(C(=O)Nc3c(F)cc(F)cc3Br)sc2n1	-2	-8	2.4	7	-0.2	31	0.72	i	-21	-2.4
COCCN1C(=O)c2oc3ccccc3c(=O)c2C1c1ccc(C(=O)OC)cc1 (stereo not given)	1	4	-3.8	2	0.5	-6	0.74	i	4.3	0.2
COc1ccc(OC)c(C2SCCN2S(=O)(=O)c2cccc(C(F)(F)F)c2)c1 (stereo not given)	x	x	x	7	1.0	2	0.68	x	-1.4	x
C/C(=N\NC(=O)CNC(=O)c1cccnc1)c1cccc(O)c1	5	9	2.7	-5	0.3	x	x	i	x	0.6
COc1ccc(Cc2nnc(SC)[nH]c2=O)cc1	x	x	x	0	0.0	-2	0.61	x	1.2	x
CCN(C(=O)CCCCC(=O)N(CC)c1ccccc1)c1ccccc1	-7	-16	3.2	0	-0.3	-1	0.68	i	0.1	0.1
N#Cc1c(NC(=O)CSc2nnc(-c3ccccc3O)n2-c2ccccc2)sc2c1CCCC2	x	x	x	13	-0.4	-8	0.8	x	-5.3	x
Cc1ccc(/C(C#N)=C\c2ccc(N3CCOCC3)o2)cc1	5	-2	4.8	58*	1.2	0	0.67	i	4.5	-2.7
CNC(=O)c1ccc(-c2ccc(F)cc2)s1	x	x	x	-20	-3.0	-8	0.68	x	-26	x
CCOc1ccc(NC(=O)CN(C)CC(=O)NC(C)c2ccccc2)cc1OCC (stereo not given)	4	-18	-0.8	-8	-0.6	-6	0.73	i	0.1	-0.6
COc1ccc(Cl)cc1N(CC(=O)NCCSCc1ccccc1)S(C)(=O)=O	-23	-23	2.6	0	-0.5	-4	0.65	i	0.2	-2.6
Cc1ccc(Cn2c(NCCCn3ccnc3)nc3c2c(=O)n(C)c(=O)n3C)cc1	x	x	x	32	-0.4	-2	0.7	x	-3.7	x
O=C(Nc1ccc2c(c1)oc1ccccc12)c1ccc(Br)o1	x	x	x	18	-4.7	6	0.73	x	1.2	x
O=C(CN1C(=O)NC(c2ccccc2)(c2ccccc2)C1=O)NC1CCCCC1	-9	-10	-1.1	x	x	x	0.66	i	5.3	0.9
Cc1nn(C(C)C(=O)N/N=C/c2ccc(N(C)C)cc2)c(C)c1[N+](=O)[O-] (stereo not given)	3	7	-2.1	-9	-0.4	4	x	i	x	1.3
COc1cc(C)c(Br)cc1S(=O)(=O)NCc1ccncc1	0	2	-1.9	-42	0.5	18	0.74	i	2.8	-2.0
O=P(O)(c1ccc(Cl)cc1)c1ccc(Cl)cc1	x	x	x	-13	0.4	-10	0.75	x	1.5	x
CCOc1ccccc1C(=O)Oc1ccc2ccc(=O)oc2c1	-1	0	-0.5	-10	-0.5	-6	0.64	i	i	-21
COc1ccc(NC(=O)c2c(Cl)n(C)c3ccccc23)cc1	x	x	x	-4	-1.0	14	0.76	x	2.6	x
CC(C)=CCOc1ccc2c(C)c(CC(=O)N3C[C@H]4C[C@@H](C3)c3cccc(=O)n3C4)c(=O)oc2c1C	x	x	x	15	0.1	8	0.75	i	-199	1.9
CCOc1ccc(C2Sc3ccccc3NC3=C2C(=O)OC3)cc1 (stereo not given)	x	x	x	4	0.1	-3	0.67	x	3.6	x
Cc1ccccc1CCN1CCCC(CN(C)C(=O)C(=O)c2ccco2)C1 (stereo not given)	7	13	2.5	49	-0.1	2	0.69	i	2.1	2.4
COCCN(C(=O)CCN1C(=O)C2CC=CCC2C1=O)c1c(N)n(CC(C)C)c(=O)[nH]c1=O (stereo not given)	8	7	0.4	x	1.2	-3	0.67	i	-2.4	-0.7
CCn1cc(C(=O)NCc2cccc(C(F)(F)F)c2)c(=O)c2ccc(C)nc21	-23*	-18*	7.8*	-16	1.5	-5	0.46*	i	2.3	0.0
O=C(CCn1c(=O)[nH]c2ccsc2c1=O)N1CC(=O)N(CCc2ccccc2)C(=O)C1	x	x	x	-12	2.9	-9	0.71	x	2.3	x
CCOC(=O)c1c(C)nc2sc3c(=O)n(-c4ccc(C(C)=O)cc4)nnc3c2c1-c1ccc(Cl)cc1	x	x	x	36	-0.2	19	0.75	x	-0.4	x
COc1ccccc1CNC(=O)C1CCC(CNS(=O)(=O)c2cccs2)CC1 (stereo not given)	-2	-4	-1.2	0	-0.2	-1	0.71	i	3.2	0.4
Cc1ccc(-n2nc3c(c2NC(=O)C(C)(C)C)CS(=O)(=O)C3)cc1	x	x	x	-9	-0.1	-6	0.7	x	0.2	x
COc1ccc(CNC(=O)CN(Cc2ccco2)C(=O)CNS(=O)(=O)c2ccccc2)cc1	4	8	2.2	-1	0.4	0	0.67	i	1.0	-1.1
Cc1cc(C)cc(N2C(=O)C3CC=CCC3C2=O)c1 (stereo not given)	x	x	x	-12	-0.4	-4	0.73	x	-0.7	x
Cc1[nH]c2ccccc2c1C(=O)CSC(=S)N1CCN(C)CC1	x	x	x	27	-0.1	-8	0.63	i	3.7	-2.9
COc1ccc(C(=O)NN2CCOCC2)cc1	2	0	-2.9	-24	-1.4	-7	0.73	i	0.4	-10

Of the compounds above, these have a cyano group.
SMILES	rRNA inh HTS	rRNA inh HTS OD600	rRNA inh HTS RFP	T cruzi inh	Bfl-1 A1 inh	Beta cell apopt	E coli growth	FGF22 binding	UCH37 DUB inh	MLL AF4-AF9 inh
N#Cc1c(NC(=O)CSc2nnc(-c3ccccc3O)n2-c2ccccc2)sc2c1CCCC2	x	x	x	13	-0.4	-8	0.8	x	-5.3	x
Cc1ccc(/C(C#N)=C\c2ccc(N3CCOCC3)o2)cc1	5	-2	4.8	58*	1.2	0	0.67	i	4.5	-2.7

(list continues)
SMILES	rRNA inh HTS	rRNA inh HTS OD600	rRNA inh HTS RFP	T cruzi inh	Bfl-1 A1 inh	Beta cell apopt	E coli growth	FGF22 binding	UCH37 DUB inh	MLL AF4-AF9 inh
CC(C)(C)OC(=O)CNC(=O)c1[nH]cnc1C(=O)N[C@@H](Cc1ccccc1)C(=O)OC(C)(C)C	-8	-34	21	17	1.9	-5	x	i	3.3	6.4
CN1CCc2c(sc3c2c(=O)n(-c2ccccc2)c2nnc(SCc4ccccc4)n32)C1	x	x	x	71*	0.1	-7	0.69	x	-2.7	x
CCOc1ccc2ccccc2c1C1NC(=S)N(C)C(C)=C1C(=O)OC (stereo not given)	1	6	8.0	-9	-0.4	-4	0.72	i	4.7	-2.3
Oc1c(I)cc(Cl)c2cccnc12	x	x	x	-3	0.8	7	0.12*	i	0.5	-1.2
Cc1c(-c2nn(C)c(=O)c3ccccc23)oc2ccc(F)cc2c1=O	x	x	x	-4	0.3	-4	0.74	x	5.2	x
CN(C(=O)c1ccoc1)c1ccc2ccccc2c1	-8	-14	-1.6	-20	2.1	-4	0.7	i	2.0	-2.5
CNS(=O)(=O)c1cc(Nc2ncnc3sccc23)ccc1C	-3	-4	-2.5	6	0.4	5	0.67	i	2.1	-0.5
Cn1c(=NC(=O)C2CC2)sc2cc(F)cc(F)c21	2	4	0.1	-4	-1.0	1	0.76	i	1.7	11
O=C(NCCc1ccccc1Cl)C1CCN(S(=O)(=O)c2cccs2)CC1	x	x	x	-7	0.3	-2	0.68	x	-1.9	x
Cc1ccc2c(c1)c1c(c(=O)n(-c3ccccc3C)c(=O)n1CC(=O)NCC1CCCO1)n2C (stereo not given)	2	3	-2.4	8	1.3	-3	0.7	i	i	1.8
COc1cccc(OC)c1C(=O)NC(=S)Nc1ccc(N2CCOCC2)c(Cl)c1	2	-1	-2.4	11	0.0	2	0.68	i	1.6	-0.2
Cc1oc(-c2ccccc2F)nc1CS(=O)(=O)CC(=O)N1CCc2ccccc21	-2	4	-1.2	x	0.4	-2	0.74	i	4.1	0.1
COc1ccc(C2=NOC(Cn3nc(C(=O)NCc4cccc(C(F)(F)F)c4)cc3-c3ccccc3)C2)cc1 (stereo not given)	6	-11	-1.5	28	1.1	11	0.71	i	2.1	0.1
CC(C)CCNC(=O)c1ccc(-c2ccccc2)cc1	x	x	x	12	0.9	5	0.64	x	3.7	x
CCCCOC(=O)Nc1nnc(/C=C/c2ccc(OC)cc2)s1	x	x	x	-6	-0.4	x	0.75	i	-464	3.3
Cc1cc(C)n(-c2nc3c(c(=O)n(C)c(=O)n3C)n2C)n1	x	x	x	-18	-0.5	-5	0.7	x	1.5	x
COc1ccc(Cn2c(=O)[nH]c3cc(C(=O)N4CCN(c5ccccn5)CC4)ccc3c2=O)cc1	22	19	-3.2	5	-0.1	-3	0.71	i	-1.8	4.6
O=C(O)C1C(c2ccccc2)C(C(=O)Oc2ccccc2)C1c1ccccc1 (stereo not given)	x	x	x	-5	0.5	x	0.68	x	2.8	x
CCCC(C)c1nnc(NC(=O)CCS(=O)(=O)Cc2ccccc2)s1 (stereo not given)	16	20	0.2	-1	-0.5	x	0.65	i	0.9	-0.7
CCNC(=S)N1CCN(CC(=O)Nc2ccc(OC)cc2)CC1	7	-1	-3.4	-30	0.9	-6	0.66	i	4.0	-2.0
O=C(Nc1cccc(-n2cnnn2)c1)c1cnccc1Cl	5	14	-0.4	-4	-1.4	-1	0.67	i	0.9	-1.1
COc1ccccc1-c1ocnc1C(=O)N1CCN(C(=O)C(c2ccccc2)c2ccccc2)CC1	-3	-10	-0.4	9	-0.4	0	0.71	i	3.8	-7.7
COc1ccc(N2CCN(S(=O)(=O)CCNC(=O)COc3ccc(Cl)cc3)CC2)cc1	8	14	-0.7	0	-0.4	-6	0.71	i	3.4	-0.8
CC(=O)Nc1ccc2nc(NC(=O)COc3ccc(C)cc3)sc2c1	x	x	x	-19	-0.6	-2	0.75	+	3.4	-1.2
COCCN(Cc1cc2cc(C)cc(C)c2nc1Cl)C(=O)Nc1ccccc1	-6	3	6.5	-27	-0.1	16	0.71	i	1.7	-8.8

These rows are one share of the data; count on the stated rates, not on these rows.
